Compound activity as filed in PubChem.
VACV Venus inh – inhibitors of vaccinia virus (Venus reporter). Vaccinia virus Venus reporter expression, fluorescence. Potency, µM (titrated, usually from 36.5 µM), inactives show at the highest dose activity change, negative = inhibition, hits mostly inhibitors. AID 720580. 0.46% of 330,000 active; active means well fitted inhibition curve with a large enough effect; inconclusive means small, poorly fitted or top-dose-only effect; inactive means no such curve, though single readings can be large or run the other way; tested in A549 cells; note: nearly all actives have a fitted effect of over 30% in size; inactives centre near -10
VACV mCherry inh – inhibitors of vaccinia virus infection (mCherry reporter signal) | Vaccinia virus mCherry reporter infection, fluorescence; about a quarter of the inactives have no number | Potency, µM (doses to about 36.5 µM), for inactives: at the highest dose activity change, negative = inhibition, hits mostly inhibitors | 0.63% of 310,000 active; active = well fitted inhibition curve with a large enough effect; inconclusive = small, poorly fitted or top-dose-only effect; inactive = no such curve, though single readings can be large or run the other way; tested in A549 cells; note: nearly all actives have a fitted effect of over 35% in size; inactives centre near -10
* marks the source's active call; other numbers are inactive results; i = inactive; u = inconclusive; x = no result given; & = joins results of further samples; [ ] = dose if it differs, or a comment. % is set by controls: 0 for no effect and ±100 for the full control effect; potency is the fitted concentration of half-maximal effect.

# | mol | VACV Venus inh | VACV mCherry inh
1 | O=C(NCc1cccc(Cl)c1)C1Cc2c(-c3cccc(F)c3)ccnc2O1 (stereo not given) | -7% | -1%
2 | [NH-]c1ncnc2c1N=C[N+]2=CC=CCO | -6% | 0%
3 | CC1(C)CC(NC(=O)C2CCN(S(=O)(=O)c3ccccc3C(F)(F)F)CC2)CC(C)(C)N1 | -10% | i
4 | COC(=O)c1cc(=O)nc(NN=C2c3ccccc3-c3ccccc32)s1 | -12% | -13%
5 | O=C(Nc1ccc2c(c1)OCO2)c1ccccc1 | -5% | -23%
6 | O=C(Cn1c(=O)n(-c2ccccc2Cl)c(=O)c2sc3ccccc3c21)N1CCCC1 | -2% | -6%
7 | CC(=O)c1ccc(N2CCN(S(=O)(=O)c3c(C)[nH]c(C)c3C(=O)N3CCCC3)CC2)cc1 | 4% | -5%
8 | COCCCNC(=O)Cn1ccc(N)nc1=O | -3% | -15%
9 | CCn1nc(C)c(CN2CCCC(CNS(=O)(=O)c3ccc(OC)cc3)C2)c1C (stereo not given) | -15% | i
10 | O=C(CSc1nnc(-c2ccncc2)o1)Nc1nncs1 | -13% | -4%
11 | COC(=O)N/N=C(C)/C=C/c1ccccc1 | -3% | i
12 | COc1ccc(N2CCN(C(=O)COC(=O)CCS(=O)(=O)c3ccc(C)cc3)CC2)cc1 | -1% | -7%
13 | O=C(NCCCc1ccccc1)c1cccc(NC(=O)C2CC2)c1 | -8% | -8%
14 | O/N=C1\CC2(Cc3nonc31)OCCO2 | -13% | x
15 | Cc1ccn2c(=O)cc(COc3ccc(NC(=O)COc4ccc(C)c(C)c4)cc3)nc2c1 | -15% | -10%
16 | O=[N+]([O-])c1cc(CN2CCN(c3cccc(C(F)(F)F)c3)CC2)c2cccnc2c1O | -23% | -20%
17 | CCOC(=O)c1cc(-c2ccc(C)cc2)n(CC(=O)Nc2cc(C)ccc2C)c1C | 9% | -7%
18 | O=C(Nc1ccccc1)/C(=C/c1ccccc1)NC(=O)c1ccco1 | 0% | -12%
19 | COc1ccc(N2CCN(C(=O)C3CCN(Cc4nc(-c5ccc(Cl)cc5)oc4C)CC3)CC2)cc1 | -12% | -13%
20 | Oc1ccc(-c2n[nH]c(=S)n2Cc2ccccc2)cc1 | -11% | x
21 | Fc1ccc(C2=CC(c3ccc(F)cc3)n3c(nc4ccccc43)N2)cc1 (stereo not given) | 7% | -24%
22 | COc1cc(-c2c(NC(=O)c3ccco3)oc3c(C)cccc3c2=O)cc(OC)c1OC | 0% | -17%
23 | O=C(Nc1nc2ccccc2s1)Nc1ccc(F)cc1F | -5% | -9%
24 | COc1ccccc1N1CCN(C(CNS(=O)(=O)c2ccc(C)cc2)c2cccnc2)CC1 (stereo not given) | -20% | -27%
25 | COc1cccc(C(C(=O)NC2CCCC2)N(C(=O)CNC(=O)c2ccco2)c2cccnc2)c1 (stereo not given) | -21% | -3%
26 | CCSc1nnc(NC(=O)CSc2nc3c(c(=O)n2CCOC)SC(C)C3)s1 (stereo not given) | -9% | -1%
27 | CCOC(=O)[C@]12CCC=C1N(Cc1ccccc1)C(=O)[C@H](CC(=O)N1CCOCC1)C2 | 3% | -3%
28 | COc1cccc(C(=O)NCCn2ccc3ccccc32)c1 | -22% | i
29 | Clc1ccc(SCCCCn2ccnc2)cc1 | -22% | x
30 | O=S1(=O)c2ccccc2N(Cc2cccc(Cl)c2)c2ccccc21 | -4% | -15%
31 | COc1ccc(S(=O)(=O)Nc2nc(C(F)(F)F)cs2)cc1 | 17% | x
32 | O=C(NCc1ccc(Cl)cc1)c1nccnc1CO | -4% | i
33 | Cc1cc(C)c(C#N)c(Sc2ccc(N)cc2)n1 | -7% | i
34 | O=C(c1ccc(S(=O)(=O)c2ccccc2Cl)c([N+](=O)[O-])c1)N1CCN(Cc2ccccc2)CC1 | -16% | -6%
35 | CCCC(C(=O)NC(C)(C)C)N(CCN1CCOCC1)C(=O)CNS(=O)(=O)c1ccccc1 (stereo not given) | 4% | -14%
36 | COc1cc(C(C)=O)ccc1OCC(=O)N1CCC(Cc2ccccc2)CC1 | -8% | -7%
37 | COc1n[nH]c2nncnc12 | -11% | -9%[1.46 µM]
38 | COc1ccc(CN(C)S(=O)(=O)c2c(C)noc2C)cc1OC | -10% | -15%
39 | O=C(NC1CCCCC1)[C@@H]1CC=C[C@@H]2CCN(Cc3ccccc3)C(=O)[C@@H]21 | -28%&-18% | -2%
40 | Cc1ccc(Nc2c3c(nc4ncnn24)CCC3)cc1 | -22% | -6%
41 | CC(C)(C)OC(=O)C[C@@H]1C/C=C\C[C@@H](CC(=O)N[C@H](CO)Cc2ccccc2)C(=O)N2CCC[C@@H]2COC1=O | -8% | i
42 | CCCCc1ccc(NC(=O)c2ccc(N(C)S(C)(=O)=O)cc2)cc1 | -23% | -10%
43 | CC(C)C(NS(=O)(=O)c1ccc2c(c1)oc(=O)n2C)C(=O)N1CCN(Cc2ccccc2)CC1 (stereo not given) | 6% | i
44 | c1ccc2c(-c3nnc4n3CCCCC4)cc(-c3ccncc3)nc2c1 | 1% | -12%
45 | O=S(=O)(CCNCc1ccccc1)NC1CCCCC1 | -5% | i

Rewritten screen by screen: part of the list above
35) CCCC(C(=O)NC(C)(C)C)N(CCN1CCOCC1)C(=O)CNS(=O)(=O)c1ccccc1 (stereo not given)
36) COc1cc(C(C)=O)ccc1OCC(=O)N1CCC(Cc2ccccc2)CC1
37) COc1n[nH]c2nncnc12
Compound	35	36	37
VACV Venus inh	4%	-8%	-11%
VACV mCherry inh	-14%	-7%	-9%[1.46 µM]

(cont.)
# | mol | VACV Venus inh | VACV mCherry inh
46 | OCC[C@H]1C[C@@H](O)[C@H](O)[C@@]2(OCc3ccccc32)O1 | -8% | i
47 | CN1CCN(C(=O)c2cc(-c3ccccc3)on2)CC1 | -3% | -7%
48 | Cc1c(C(=O)N2CCC(C)CC2)c(S(=O)(=O)N(Cc2ccccc2)C(C)(C)C)c(C)n1C | -17% | -21%
49 | Nc1ncnc2c1ncn2[C@@H]1O[C@H](CNCc2ccc(-n3cccn3)cc2)[C@@H](O)[C@H]1O | -11% | -21%
50 | COC(=O)CSc1nc2cc(C)cc(C)c2cc1C#N | -1% | -10%
51 | Cn1c(=O)c2c(nc(CN3CCN(C(c4ccccc4)c4ccccc4)CC3)n2CCCO)n(C)c1=O | -10% | -13%
52 | CC(C)NS(=O)(=O)c1ccc(NC(=O)Cc2cccs2)cc1 | -11% | -14%
53 | COc1ccc(CCNC(=O)c2ccc(CN3CCC(Cc4ccccc4)CC3)cc2)cc1OC | -7% | -8%
54 | COc1ccccc1CNC(=O)C(=O)NCC(c1ccco1)S(=O)(=O)c1ccc(C)cc1 (stereo not given) | -26% | -19%
55 | COc1cccc(Nc2sc(C(=O)c3ccc4c(c3)OCO4)c(N)c2S(=O)(=O)c2ccccc2)c1 | -3% | -21%
56 | O=C(Nc1cccc(Cl)c1)Nc1cccc(C(=O)O)c1 | 16% | i
57 | CCN(CC)CCN(CC(=O)N(C1CCCCC1)C1CCCCC1)C(=O)c1cccnc1 | -3% | -14%
58 | COc1ccc(NC(=O)c2cc(-c3cc(F)ccc3OCC3CCCO3)n[nH]2)c(C)c1 (stereo not given) | -15% | -32%
59 | NC(=O)Nc1n[nH]c(-c2ccccc2)n1 | -8% | i
60 | O=c1cc(CSCc2ccc(Cl)cc2)[nH]c(=O)[nH]1 | -9% | 0%

Excerpt: nos. 36–39
# | mol | VACV Venus inh | VACV mCherry inh
36 | COc1cc(C(C)=O)ccc1OCC(=O)N1CCC(Cc2ccccc2)CC1 | -8% | -7%
37 | COc1n[nH]c2nncnc12 | -11% | -9%[1.46 µM]
38 | COc1ccc(CN(C)S(=O)(=O)c2c(C)noc2C)cc1OC | -10% | -15%
39 | O=C(NC1CCCCC1)[C@@H]1CC=C[C@@H]2CCN(Cc3ccccc3)C(=O)[C@@H]21 | -28%&-18% | -2%

(next part)
# | mol | VACV Venus inh | VACV mCherry inh
61 | COc1ccc(C(=O)n2nc(-c3ccc(Cl)cc3)nc2N)cc1OC | -11% | x
62 | COc1c(C(=O)Nc2ccc(CN3CCOCC3)cc2)cc2ccccc2c1Br | u | -16%
63 | Cc1cnc(SCc2ccccn2)nc1C1CCCN(C(=O)c2ccc(-c3ccccc3F)cc2)C1 (stereo not given) | u | u
64 | Cc1ccc(OCCCCn2ccnc2)c([N+](=O)[O-])c1 | -13% | -8%
65 | COC(=O)c1ccccc1N=Cc1c(O)[nH]c(=S)[nH]c1=O | -1% | 7%
66 | COc1ccccc1NC(=O)CSc1ncn[nH]1 | -7% | -2%
67 | COc1cccc(N2CC(O)=C(c3nc4ccccc4s3)C2=N)c1 | u | -10%
68 | COc1cccc(OC)c1C(=O)Nc1cc(C)nn1-c1nc2ccccc2[nH]1 | 1% | -14%
69 | C#CCOc1ccc(Br)cc1/C=N/O | u | x
70 | Cc1ccc(S(=O)(=O)N2CCC[C@H]2C(=O)OC(C)C(=O)Nc2ncc(Cl)cc2Cl)cc1 (stereo not given in full) | -10% | -10%
71 | CCOC(=O)[C@@H]1CCNC[C@@H]1c1ccccc1 | -6% | x
72 | COc1ccc(Cc2nnc(SCC(=O)c3ccc4c(c3)NC(=O)CO4)o2)cc1 | -16% | -1%
73 | COc1ccc(-c2ccc(SCc3cccnc3)nn2)cc1OC | -10% | i
74 | NC(=O)CC(NC(=O)c1ccccc1)c1ccc(NC2CCCCCCC2)c([N+](=O)[O-])c1 (stereo not given) | -23% | -21%
75 | CCN(CC)C(=O)C1=C(C)N(CCC2=CCCCC2)C(=O)C(CC(=O)NC(c2ccccc2)c2ccccc2)C1 (stereo not given) | u | -23%
76 | O=C(Nc1ccc2cn[nH]c2c1)c1ccc(Cl)c(S(=O)(=O)N2CCOCC2)c1 | -8% | -16%
77 | CCC(C(=O)O)n1ccc2cc(S(=O)(=O)N3CCCCC3)ccc21 (stereo not given) | -10% | -5%
78 | COc1ccc(OCC(=O)NC(=O)c2ccccc2OC)c([N+](=O)[O-])c1 | -2% | -27%
79 | O=C(NCCN1CCOCC1)c1ccc(NS(=O)(=O)c2cccc([N+](=O)[O-])c2)cc1 | -14% | i
80 | O=C1CC(/C=C/c2ccncc2)=Nc2ccccc2N1 | -4% | u
81 | Cc1cccc(C2=NN(c3ccc(Br)cc3)[C@@H](C(=O)N3CCOC3=O)[C@@H]2c2ccc([N+](=O)[O-])cc2)c1 | u | u
82 | CC(C)(C)C1CCc2c(sc(NC(=O)c3ccncc3)c2C(=O)Nc2ccccc2Cl)C1 (stereo not given) | -15% | i
83 | COc1ccc(C(c2c(C)[nH]n(-c3ccccc3)c2=O)c2c(C)[nH]n(-c3ccccc3)c2=O)cc1OC | -10% | i
84 | O=C(CC(NC(=O)OCc1ccccc1)C(=O)O)OCc1ccccc1 (stereo not given) | 0% | i
85 | COc1ccc(-c2nnn(CC(=O)N(CCCO)C(C(=O)NC3CCCC3)c3ccncc3)n2)cc1 (stereo not given) | -8% | -18%
86 | CCn1c(CNc2ccccc2Cl)nnc1SCC(=O)NCc1ccccc1 | -18% | -4%
87 | CNC(=S)N(Cc1ccc(OC)cc1)Cc1cc2cccc(C)c2[nH]c1=O | -14% | -10%
88 | CN(C)c1ccc(-c2csc(C(C)(O)c3ccccc3)n2)cc1 (stereo not given) | -12% | i
89 | CCOC(=O)c1[nH]c(C)c(CCC(=O)NCc2ccc(OCC)cc2)c1C | -6% | -14%
90 | COC(=O)Cc1ccc(NC(=S)N2CCN(c3ccc(F)cc3)CC2)cc1 | -22% | -8%
91 | O=S(=O)(O)c1cc(O)c(N=Nc2ccc(O)cc2O)c2ccccc12 | i | 351%[activator]
92 | O=C(CNC(=O)C1CCCCC1)NCc1ccco1 | -8% | i
93 | CC(C)CNC(=O)C1(C)CCCN1C(=O)c1cccnc1 (stereo not given) | x | 7%
94 | CCCN(C(=O)COC(=O)CSc1ccc(C(N)=O)cc1[N+](=O)[O-])C1CCS(=O)(=O)C1 (stereo not given) | -8% | -11%
95 | Cc1oc(-c2ccccc2NC(=O)C2CCCO2)nc1CNC(=O)c1cc(F)c(F)cc1F (stereo not given) | -4% | -13%
96 | Cc1ccc(C(=O)NC(c2ccccc2)C(Cl)Cl)cc1 (stereo not given) | -17% | -23%
97 | CCC(=O)OCc1cc(=O)oc2ccc3ccccc3c12 | -1% | -2%
98 | O=C(CN1CCN(C(=O)CCC(=O)N2CCC(c3ccccc3)=N2)CC1)Nc1cccc(F)c1 | -20% | -18%
99 | COc1ccc(C(=O)N/N=C/c2ccc(OC)c(CN3CCc4cc(OC)c(OC)cc4C3C)c2)cc1 (stereo not given) | -7% | -4%
100 | COc1cc(NC(=O)C2CCN(S(=O)(=O)c3ccc(Cl)cc3)CC2)ccc1-n1cnnn1 | u | i
101 | C=CCn1c(SCC(=O)c2ccc(Cl)cc2)nnc1-c1ccc2c(c1)OCO2 | -2% | i
102 | CCC1=Nc2cc(C(=O)NCc3ccco3)ccc2Sc2ccc(C)cc21 | u | i
103 | Cc1cc(N2CCOCC2)nc2ccc(NC(=S)N3CCN(Cc4ccccc4)CC3)cc12 | -10% | -12%
104 | OCCNc1nc(SCc2ccccc2)nc2sc3c(c12)CCC3 | -27% | u
105 | O=C(NCc1ccccc1)C1c2ccccc2OCC(=O)N1CCc1ccccc1 (stereo not given) | -2% | 29%
106 | CC(C)CCc1c(O)nc(SCC(C)C)[nH]c1=O | -11% | -1%
107 | Cc1cc(N2CCCC2)ccc1/C=C1\NC(=S)N(C)C1=O | 0% | u
108 | CC(C)(C)OC(=O)[C@H](Cc1ccccc1)NC(=O)c1nc[nH]c1C(=O)N1CCNCC1 | -7% | -7%
109 | CCN(Cc1ccccc1)S(=O)(=O)c1ccc2c(c1)CCCN2C(C)=O | -13% | -5%
110 | COc1ccc([C@H]2CC(=O)C=C(c3cc(C)ccc3F)C2)cc1 | -25% | -14%
